Bead autofluor: compound fluorescence in toxin protease inhibitor counterscreen | AID 624483 | compound autofluorescence counterscreen, microsphere flow cytometry; hits give high values | 360,000 tested, 3.1% active | fluorescence intensity (concentration not given with the values);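 active means at least 3 SD above the mean of all compounds, about 16000 in these data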;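 further: 100 nL of 1 mM stock went into each well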
PrP 5UTR inh: inhibition of PrP 5' UTR reporter expression | cell-based PrP 5' UTR mRNA reporter, plate reader | inhibition, % (concentration not given with the values) | 340,000 tested, 0.35% active;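 active means every replicate at 50% or more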;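 further: 0 = median of the neutral control wells; tested in H4 reporter cells; numbers are from one replicate; inactives centre near -14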
Sa ugtP lethal: growth inhibition of ugtP-null S. aureus, primary screen, RN4220 ugtP deletion, OD600. AID 1259309, 2017. 330,000 tested, 0.54% active. 16 h; some inactives read as strong as hits. growth inhibition, % (no concentration beside the values);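 active means z-score under -3 and OD600 up to 0.15 on both plates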;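 further: plate controls were untreated wells for no effect and antibiotic for full effect; wells of about 80 µL received 100 nL stock; the first replicate is given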
Mtb hypoxia inh: PubChem AID 1159583 | M. tuberculosis hypoxia-regulated fluorescent reporter, fluorescence | fluorescence inhibition, % (concentration not given with the values) | 300,000 tested, 0.1% active;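 active means 35 to 45% if threefold the growth effect, above 45% if 1.5-fold the growth effect; inactive means the rest, general growth blockers included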;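 further: wells of about 50 µL received 100 nL stock; 0% = vehicle wells and 100% = reference inhibitor wells; whole bacteria with a GFP reporter of the hypoxia response; strong numbers were not always called active; many hits fall short of the cut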
RN4220 kill: growth inhibition of S. aureus RN4220, primary screen, OD600. 16 h. inhibition, % (no concentration beside the values). 330,000 tested, 0.33% active;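 active means z-score of -3 or lower and OD600 up to 0.18 on both plates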;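 further: plate controls were untreated cells for no effect and reference antibiotic for full effect; stock transfer was 100 nL into about 80 µL; one replicate is shown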
BJeLR lethal: MLPCN primary cell-based screen for lethality selective to Ras in HRASV12 cells | 300,000 tested, 0.17% active | AID 1554, 2009 | inhibition, % (no concentration beside the values) | BJeLR (HRASV12) viability, CellTiter-Glo ATP luminescence, 48 h; reference of the scale not given here;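 active means replicate mean above 50%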;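 further: 50 nL library stock added to about 25 µL; numbers are from one replicate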
Mtb hypoxia inh growth: second read-out of Mtb hypoxia inh, no call of its own (marks repeat the call); growth inhibition, %; measured here: M. tuberculosis growth (absorbance);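 0% = vehicle and 100% = reference antibiotic; read after six days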
Starred values were filed as active, the others as inactive. Random draw from the library, and some 3.9% of all compounds hit somewhere here.

What do the screens show for `COc1ccc(-c2nn[nH]n2)cc1OC`?
Bead autofluor: 2650; PrP 5UTR inh: 1.2; Sa ugtP lethal: 2.4; RN4220 kill: -2.7; BJeLR lethal: -3.4

What do the screens show for `O=C(O)C1C2CCC(O2)C1C(=O)Nc1cccc(Br)c1` (stereo not drawn)?
Bead autofluor: 3599; PrP 5UTR inh: -78.5; Sa ugtP lethal: 3.5; Mtb hypoxia inh: 8.0; RN4220 kill: 7.0; BJeLR lethal: -3.5; Mtb hypoxia inh growth: 9.5

What do the screens show for `COCCN(C(=O)CSCc1ccccc1)c1c(N)n(Cc2ccccc2)c(=O)[nH]c1=O`?
Bead autofluor: 5961; PrP 5UTR inh: -9.9; Sa ugtP lethal: 9.7; Mtb hypoxia inh: 7.5; RN4220 kill: 3.3; BJeLR lethal: -0.6; Mtb hypoxia inh growth: 9.2

Results for Cc1cc(NC(=O)CCC(=O)N(CC(=O)NC2CCCC2)c2cccc(F)c2)no1 ?
Bead autofluor: 3600; PrP 5UTR inh: -19.8; Sa ugtP lethal: 6.4; Mtb hypoxia inh: 8.7; RN4220 kill: 3.0; BJeLR lethal: 5.7; Mtb hypoxia inh growth: 11.1

Results for O=C1C2C(c3ccccc3)C=CC(c3ccccc3)C2C(=O)N1c1cccnc1 (stereo not drawn) ?
Bead autofluor: 2442; PrP 5UTR inh: -19.9; Sa ugtP lethal: 14.0; Mtb hypoxia inh: 5.6; RN4220 kill: 8.8; BJeLR lethal: -2.7; Mtb hypoxia inh growth: 4.0

What do the screens show for `CCn1c(COc2cccc(OC)c2)nnc1SCC(=O)Nc1cc(OC)ccc1OC`?
Bead autofluor: 23149*; PrP 5UTR inh: -10.9; Sa ugtP lethal: -11.0; Mtb hypoxia inh: 2.8; RN4220 kill: 8.5; BJeLR lethal: -3.6; Mtb hypoxia inh growth: 5.9

Results for Cc1cc(NN=Cc2ccccc2Br)nc2ccccc12 ?
Sa ugtP lethal: 45.1; Mtb hypoxia inh: 8.5; RN4220 kill: 2.0; Mtb hypoxia inh growth: 1.3

Results for Cc1ncc([N+](=O)[O-])n1Cc1ccc(Br)cc1 ?
Bead autofluor: 2611; PrP 5UTR inh: -19.7; Sa ugtP lethal: 1.2; Mtb hypoxia inh: 12.5; RN4220 kill: 1.5; BJeLR lethal: -6.7; Mtb hypoxia inh growth: 0.9

What do the screens show for `CC(NC(=O)c1nc[nH]c1C(=O)NC(C)C(=O)OC(C)(C)C)C(=O)OC(C)(C)C` (stereo not drawn)?
Sa ugtP lethal: 0.0; Mtb hypoxia inh: 19.2; RN4220 kill: 8.0; Mtb hypoxia inh growth: 8.6

What do the screens show for `CCCCNC(=O)CSc1nc2n[nH]c(C)c2c(=N)n1-c1cccc(Cl)c1C`?
Bead autofluor: 8584; PrP 5UTR inh: -25.3; Sa ugtP lethal: -3.9; Mtb hypoxia inh: 2.0; RN4220 kill: 2.4; BJeLR lethal: 3.0; Mtb hypoxia inh growth: -0.8

Results for Cc1cccc(CSc2ncc(CO)n2C)c1 ?
Bead autofluor: 2703; PrP 5UTR inh: -17.7; Sa ugtP lethal: 3.1; Mtb hypoxia inh: -2.3; RN4220 kill: -9.8; BJeLR lethal: -1.8; Mtb hypoxia inh growth: -0.9

What do the screens show for `CCNC(=S)N1CCN(CC(=O)Nc2ccc(Br)cc2)CC1`?
Bead autofluor: 2490; PrP 5UTR inh: -13.0; Sa ugtP lethal: 10.3; Mtb hypoxia inh: 6.8; RN4220 kill: 2.8; BJeLR lethal: -9.1; Mtb hypoxia inh growth: -1.6

What do the screens show for `CCOc1ccc(N2CC(C(=O)Nc3ccccc3F)CC2=O)cc1` (stereo not drawn)?
Bead autofluor: 4229; PrP 5UTR inh: -29.0; Sa ugtP lethal: 12.0; Mtb hypoxia inh: 18.3; RN4220 kill: 4.6; BJeLR lethal: -6.2; Mtb hypoxia inh growth: 15.8

Results for C#CCSc1[nH]c(=O)cc(C)c1C#N ?
Bead autofluor: 3464; PrP 5UTR inh: -6.6; Sa ugtP lethal: -3.6; Mtb hypoxia inh: -2.0; RN4220 kill: 4.1; BJeLR lethal: -0.2; Mtb hypoxia inh growth: -0.2

What do the screens show for `Cc1cc(NC(=O)Cn2c(C)nc3ccccc3c2=O)ccc1Br`?
Bead autofluor: 4721; PrP 5UTR inh: -10.5; Sa ugtP lethal: -12.9; RN4220 kill: -4.1; BJeLR lethal: 5.8

How did CCOC(=O)CC/C(C)=N\N=C1\SC(CC(=O)O)C(=O)N1c1ccccc1 (stereo not drawn) do in these assays?
Bead autofluor: 4562; PrP 5UTR inh: 84.9*; BJeLR lethal: 8.2

Results for O=C(O)CSc1c2c(nc3cc(C(=O)Nc4cccc(C(F)(F)F)c4)ccc13)CCC2 ?
Bead autofluor: 5787; PrP 5UTR inh: -7.4; Sa ugtP lethal: -6.6; Mtb hypoxia inh: -3.0; RN4220 kill: 8.3; BJeLR lethal: -11.4; Mtb hypoxia inh growth: 3.4

Results for Cc1ccc(SCC(=O)OCC(=O)NCC2CCCCC2)cc1C ?
PrP 5UTR inh: -12.6; Sa ugtP lethal: 13.2; Mtb hypoxia inh: 9.1; RN4220 kill: 2.5; BJeLR lethal: -3.7; Mtb hypoxia inh growth: -2.0

What do the screens show for `C=C(C)Cn1c(-c2cccs2)n[nH]c1=S`?
Bead autofluor: 4829; PrP 5UTR inh: 14.5; Sa ugtP lethal: 3.8; Mtb hypoxia inh: 2.0; RN4220 kill: 10.3; BJeLR lethal: -3.2; Mtb hypoxia inh growth: 0.2

What do the screens show for `CN(C)C(=O)C[n+]1cccc(/C=N/O)c1`?
Bead autofluor: 2565; PrP 5UTR inh: -9.2; BJeLR lethal: -5.5

Not a retest: an excerpt of the list.
What do the screens show for `C=C(C)Cn1c(-c2cccs2)n[nH]c1=S`?
Bead autofluor: 4829; PrP 5UTR inh: 14.5; Sa ugtP lethal: 3.8; Mtb hypoxia inh: 2.0; RN4220 kill: 10.3; BJeLR lethal: -3.2; Mtb hypoxia inh growth: 0.2

What do the screens show for `CN(C)C(=O)C[n+]1cccc(/C=N/O)c1`?
Bead autofluor: 2565; PrP 5UTR inh: -9.2; BJeLR lethal: -5.5

The list goes on:
Results for CC1=C([N+](=O)[O-])C(c2ccccc2C(F)(F)F)NC(=O)N1C (stereo not drawn) ?
Bead autofluor: 4358; PrP 5UTR inh: -11.7; Sa ugtP lethal: 4.6; Mtb hypoxia inh: -5.7; RN4220 kill: 3.6; BJeLR lethal: -2.5; Mtb hypoxia inh growth: 7.3

How did CC(C)(C)c1nc(-c2ccccc2)nc2c1OCCC2 do in these assays?
Bead autofluor: 4116; PrP 5UTR inh: -1.6; Sa ugtP lethal: 31.4; Mtb hypoxia inh: 6.1; RN4220 kill: -4.0; BJeLR lethal: 0.6; Mtb hypoxia inh growth: 8.1

Results for CCOC(=O)COc1ccc(Br)cc1/C=C1\SC(N)=NC1=O ?
Bead autofluor: 4150; PrP 5UTR inh: -15.8; Sa ugtP lethal: -0.4; Mtb hypoxia inh: 7.9; RN4220 kill: 2.6; BJeLR lethal: 8.3; Mtb hypoxia inh growth: 4.5

How did Cc1ccc(S(=O)(=O)N2CCN(S(C)(=O)=O)C2C)cc1 (stereo not drawn) do in these assays?
Bead autofluor: 5934; PrP 5UTR inh: 0.8; Sa ugtP lethal: 4.3; Mtb hypoxia inh: -6.6; RN4220 kill: 2.1; BJeLR lethal: 2.4; Mtb hypoxia inh growth: 3.4

What do the screens show for `Cc1nc(COc2ccc(C(=O)Nc3ccccc3N3CCOCC3)cc2)cs1`?
Bead autofluor: 4765; PrP 5UTR inh: -2.1; Sa ugtP lethal: 6.1; Mtb hypoxia inh: -1.5; RN4220 kill: 2.4; BJeLR lethal: -6.8; Mtb hypoxia inh growth: 4.1

How did Cc1ccc(S(=O)(=O)N(C)Cc2nc(-c3ccncc3)no2)cc1 do in these assays?
Bead autofluor: 8624; PrP 5UTR inh: -22.2; Sa ugtP lethal: -2.8; Mtb hypoxia inh: 8.5; RN4220 kill: 3.4; BJeLR lethal: -2.8; Mtb hypoxia inh growth: 7.3

How did Cn1nc(C(=O)OCC(=O)Nc2ccccc2[N+](=O)[O-])c2ccccc2c1=O do in these assays?
Bead autofluor: 5408; Sa ugtP lethal: 0.2; Mtb hypoxia inh: -0.7; RN4220 kill: 0.8; Mtb hypoxia inh growth: 8.1

What do the screens show for `COc1ccccc1NC(=O)N1c2ccccc2NC(=O)CC1C` (stereo not drawn)?
Bead autofluor: 5804; PrP 5UTR inh: -12.6; Sa ugtP lethal: 3.4; Mtb hypoxia inh: -3.5; RN4220 kill: 1.9; BJeLR lethal: 2.4; Mtb hypoxia inh growth: -7.9

How did COc1ccc(-c2csc(NC(=O)CSc3nnc(Nc4ccccc4C)s3)n2)cc1 do in these assays?
Bead autofluor: 4220; PrP 5UTR inh: -39.5; Sa ugtP lethal: 0.8; Mtb hypoxia inh: 7.8; RN4220 kill: 11.2; BJeLR lethal: 1.1; Mtb hypoxia inh growth: -0.5

Results for N/C(=N\OC(=O)c1cccc2ccccc12)c1ccccn1 ?
Bead autofluor: 3506; PrP 5UTR inh: -61.4; BJeLR lethal: 2.5

Results for NCCc1ccccc1 ?
Bead autofluor: 5357; PrP 5UTR inh: -13.3; Sa ugtP lethal: 0.4; RN4220 kill: 4.7; BJeLR lethal: -5.3

How did CCOC(=O)c1ccc(NC(=O)CSc2nc(C)cc(=O)[nH]2)cc1 do in these assays?
Bead autofluor: 4302; PrP 5UTR inh: -6.7; Sa ugtP lethal: -3.0; Mtb hypoxia inh: 6.2; RN4220 kill: 13.4; BJeLR lethal: -6.7; Mtb hypoxia inh growth: -3.7

What do the screens show for `O=C(NN1CCOCC1)c1ccccc1F`?
Bead autofluor: 5678; PrP 5UTR inh: -18.2; Sa ugtP lethal: -3.2; Mtb hypoxia inh: 5.4; RN4220 kill: 0.1; BJeLR lethal: -1.3; Mtb hypoxia inh growth: -4.9

How did CN(C)C(=O)CN1C(=O)NC(c2ccccc2)(c2ccccc2)C1=O do in these assays?
Bead autofluor: 3385; PrP 5UTR inh: -15.0; Sa ugtP lethal: 0.8; Mtb hypoxia inh: 0.7; RN4220 kill: 0.8; BJeLR lethal: -6.1; Mtb hypoxia inh growth: 0.2

Results for CSC1=NCCN1C(=O)C12CC3CC(CC(C3)C1)C2 ?
Bead autofluor: 4466; PrP 5UTR inh: -17.1; Sa ugtP lethal: 0.2; Mtb hypoxia inh: -7.3; RN4220 kill: 2.5; BJeLR lethal: 10.3; Mtb hypoxia inh growth: -0.6

How did COc1ccc(Cl)cc1C(=O)NCCCSc1ccccc1 do in these assays?
Bead autofluor: 5449; PrP 5UTR inh: -19.6; Sa ugtP lethal: 4.6; Mtb hypoxia inh: 9.4; RN4220 kill: 6.4; BJeLR lethal: -6.2; Mtb hypoxia inh growth: 9.6

What do the screens show for `O=C(c1ccco1)N1CCN(C(=O)C2CCN(S(=O)(=O)c3cccs3)CC2)CC1`?
Bead autofluor: 18565*; PrP 5UTR inh: 3.1; Sa ugtP lethal: 5.8; Mtb hypoxia inh: -1.0; RN4220 kill: 3.2; BJeLR lethal: -6.4; Mtb hypoxia inh growth: 0.8

Results for O=[N+]([O-])c1ccccc1S(=O)(=O)N1CCN(S(=O)(=O)c2ccc3c(c2)OCCO3)CC1 ?
Bead autofluor: 3994; PrP 5UTR inh: -11.0; Sa ugtP lethal: -5.6; Mtb hypoxia inh: -2.6; RN4220 kill: 12.1; Mtb hypoxia inh growth: 9.4

What do the screens show for `Nc1ncnc2c1ncn2[C@@H]1O[C@H](CNC(=O)[C@@H](N)Cc2ccc(C(F)(F)F)cc2)[C@@H](O)[C@H]1O`?
Bead autofluor: 3726; PrP 5UTR inh: -14.8; Sa ugtP lethal: 2.9; Mtb hypoxia inh: -8.8; RN4220 kill: 4.6; Mtb hypoxia inh growth: 3.8

How did Cc1ccc(S(=O)(=O)Nc2cc3c4c(c2)CCC(=O)N4CCC3)cc1 do in these assays?
Bead autofluor: 4533; PrP 5UTR inh: -7.7; Sa ugtP lethal: 10.0; Mtb hypoxia inh: 1.0; RN4220 kill: 9.7; BJeLR lethal: 4.4; Mtb hypoxia inh growth: 2.4

Results for Nc1ccc2nc(SCc3ccccc3F)sc2c1 ?
Bead autofluor: 5852; PrP 5UTR inh: -88.1; Sa ugtP lethal: 12.8; Mtb hypoxia inh: 15.8; RN4220 kill: 0.4; BJeLR lethal: -4.0; Mtb hypoxia inh growth: -0.5
